Screens from PubChem BioAssay.
PINK1 modulator = changes PINK1 expression | PINK1 immunofluorescence, high-content cytometry, 24 h | Potency, µM (highest dose often 76.6 µM), for inactives: at the top dose activation (PINK1 increase), usual class: activators | 410,000 compounds, 0.2% hits; active = well fitted activation curve with a large enough effect; inconclusive = small, poorly fitted or top-dose-only effect; inactive = flat fitted curve, though single readings scatter; cell line not stated here;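 note: potency is the fitted concentration of half-maximal effect; % of control where 0% means no effect; nearly all actives have a fitted effect of over 65% in size; a mitochondrial uncoupler was the plate control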
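A stable cell line was treated with compounds at 5 concentrations for 24 hours, with CCCP as control. PINK1 levels and mitochondrial localization were measured by immunofluorescence with mitochondrial, cell and nuclear markers after fixation, read by laser-scanning cytometry.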
TRPML1 inh = inhibitors of human TRPML1 channel; TRPML1-inducible cells, Ca2+ dye fluorescence, FDSS; hits give low values; inhibition of EC80 agonist-evoked calcium signal; activity change, negative = inhibition, % (concentration not given with the values); 390,000 compounds, 0.02% hits; in the data active means activity change below about -50%; inconclusive means about -30% to -50%; inactive means above about -30%;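 note: stimulus is agonist 54-4 at its EC80 concentration; % is set by controls: 0 for no effect and ±100 for the full control effect; the text of the record puts the active cut at -80%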
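TRPML1-DL cells, Tet-induced overnight (~16 h, 37 °C) at 1,500 cells/well, were loaded with Ca8 no-wash dye plus quencher for 45-90 min at room temperature. Compounds were pinned during FDSS kinetic reading; agonist 54-4 at EC80 (4 uM final) then added.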
D2 potentiator = human D2 receptor positive allosteric modulation; P14416; 360,000 compounds, 0.23% hits; AID 624464; DiscoveRx D2 beta-arrestin cells, luminescence, 90 min; 100% = 57 uM dopamine signal; potentiation, % (test concentration not listed); active = potentiation of 50% or more; inconclusive = 30% to 50%; inactive = 30% or less;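 note: compound concentration not given in the record; tested on top of an EC20 dose of dopamine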
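PathHunter D2 cells, attached overnight at 37 deg C, received compound in DMSO plus dopamine at EC20 (50 nM final) for 90 min at 37 deg C. Beta-arrestin recruitment was read as luminescence after 1 h with detection reagent at ambient temperature.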
TRPML1 ag = human mucolipin-1 channel agonism; Q9GZU1; TRPML1-expressing cells, Ca2+ dye fluorescence, FDSS; host cell line not named in the record; reference of the full effect not given here; activation, % (test concentration not listed); 410,000 compounds, 0.12% hits; AID 624414; in the data active = activation above about 50%; inconclusive = about 30% to 50%; inactive = below about 30%; note: 0% is about no effect; the text of the record puts the active cut at 80%
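Tet-induced TRPML1-DL cells, 1,500 per well, cultured overnight, were loaded with a no-wash Ca2+ dye for 45–90 min. Calcium fluorescence was recorded on the FDSS for 110 s after compound addition, before the EC80 agonist (4 uM 54-4) was added.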
D2 ag = agonists of human D2 dopamine receptor (beta-arrestin). activation, % (no concentration beside the values). 360,000 compounds, 0.084% hits. DiscoveRx PathHunter D2 beta-arrestin, luminescence, 90 min; 100% = 57 uM dopamine signal. P14416; in the data active = activation above about 40%; inconclusive = about 15% to 40%; inactive = below about 15%; note: compound concentration not given in the record; the text of the record calls up to 30% inactive
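Agonist mode: compounds alone added to overnight-plated D2 PathHunter cells for 90 min at 37 C, with 57 uM final dopamine (EC100) defining full response. Beta-arrestin recruitment detected by chemiluminescent reagent, read after 1 h at ambient temperature.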
Six1-Eya2 blk = Six1/Eya2 interaction inhibition; Q15475+O00167; AlphaScreen GST-Six1/His-Eya2 binding, biochemical; hits give low values; control for the full effect not named in the record; activity change, % (no concentration beside the values); 360,000 compounds, 0.56% hits; AID 651725; in the data active = activity change below about -65%; inconclusive = about -30% to -65%; inactive = above about -30%; note: % is set by controls: 0 for no effect and ±100 for the full control effect
Target sequence (O00167 whole entry, looked up): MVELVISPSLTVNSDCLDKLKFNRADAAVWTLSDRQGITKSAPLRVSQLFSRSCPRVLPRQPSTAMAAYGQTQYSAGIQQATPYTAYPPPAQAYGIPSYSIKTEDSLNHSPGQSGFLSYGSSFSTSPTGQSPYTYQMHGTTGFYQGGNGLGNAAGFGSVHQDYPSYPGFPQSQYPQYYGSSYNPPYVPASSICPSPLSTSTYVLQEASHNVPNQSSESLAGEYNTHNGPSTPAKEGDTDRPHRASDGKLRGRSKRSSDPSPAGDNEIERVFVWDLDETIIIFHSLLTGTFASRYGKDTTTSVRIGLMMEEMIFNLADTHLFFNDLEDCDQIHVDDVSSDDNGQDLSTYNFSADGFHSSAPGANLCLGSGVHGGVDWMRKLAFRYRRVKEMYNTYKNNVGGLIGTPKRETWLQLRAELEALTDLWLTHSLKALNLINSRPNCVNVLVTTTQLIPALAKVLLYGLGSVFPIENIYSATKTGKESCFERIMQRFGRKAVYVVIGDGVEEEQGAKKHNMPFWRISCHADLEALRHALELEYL
Target sequence (Q15475 whole entry, looked up): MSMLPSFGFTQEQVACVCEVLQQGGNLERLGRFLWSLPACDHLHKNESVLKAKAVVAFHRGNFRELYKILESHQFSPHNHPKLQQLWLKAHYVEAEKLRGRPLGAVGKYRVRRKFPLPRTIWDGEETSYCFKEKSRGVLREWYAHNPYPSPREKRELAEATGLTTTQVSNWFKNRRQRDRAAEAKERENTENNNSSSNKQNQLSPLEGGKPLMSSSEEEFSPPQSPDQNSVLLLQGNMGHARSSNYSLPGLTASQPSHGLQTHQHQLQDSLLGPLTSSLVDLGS
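GST-Six1 + His-Eya2 (5X stock: 250/500 nM); Tris pH 8.0, 300 mM NaCl, 0.05% BSA, 0.02% Tween 20; GSH donor/Ni acceptor beads; 1 h 37 °C dark; AlphaScreen readout.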
* marks the source's active call; other numbers are inactive results; . = not tested or not shown; [ ] = remark or other dose.

SMILES	PINK1 modulator	TRPML1 inh	D2 potentiator	TRPML1 ag	D2 ag	Six1-Eya2 blk
COc1ccc(S(=O)(=O)N2CCN(c3ccccn3)CC2)cc1[N+](=O)[O-]	-0.8%	-12	1	0.5	7.7	-8
O=C(NC1CCCCC1)C1CC(=O)N(Cc2ccccc2)C1 (stereo not given)	-1.4%	6	-5	0.4	0.3	10
N=C1C(c2nc(-c3cccc([N+](=O)[O-])c3)cs2)=C(O)CN1NC(=O)c1ccco1	7.8%	-15	1	0.2	-1.6	-14
CCOc1ccc(NC(=O)c2ccccc2NC(=O)CNC2CCCC(C)C2C)cc1 (stereo not given)	10%	23	-6	4.6	-6.0	1
CCOC(=O)C1(CCOC)CCN(Cc2cc3ccccc3s2)CC1	6.4%	4	-10	-0.7	-4.6	1
COc1cc2c(-c3ccccc3Cl)nc3c(c(C)nn3-c3ccccc3)c2cc1OC	0.4%	2	.	0.2	.	.
C/C(CC(C)C)=N\NS(=O)(=O)c1ccc(C)c([N+](=O)[O-])c1	0.0%	-8	-15	0.4	-6.7	-7
O=C(NC(=S)Nc1cccc(NC(=O)c2ccccc2)c1)c1cccc([N+](=O)[O-])c1	1.3%	-14	-18	-0.7	-5.1	-12
COc1ccccc1N1CCN(C(=O)CN2C(=O)c3ccccc3S2(=O)=O)CC1	0.7%	27	-9	0.8	-1.2	10
Cc1c(C)c2ccc(OCC(=O)Nc3ccc(S(N)(=O)=O)cc3)c(C)c2oc1=O	0.6%	9	-1	0.4	-3.6	-19
COc1ccc(C(=O)N2CCN(C(C)=O)CC2)cc1S(=O)(=O)N1CCOCC1	0.7%	-2	-3	0.2	-1.0	10
Cc1ccsc1C(C(=O)NC1CCCCC1)N(C(=O)Cc1cccs1)C1CC1 (stereo not given)	.	-2	0	2.0	-0.6	4
N#C/C(=C\c1ccc(Cl)cc1)c1nc2ccccc2o1	6.0%	11	-15	0.9	0.2	-5
COc1ccccc1CN1CCNC(=O)C1CC(=O)NCc1cn(C)nc1C (stereo not given)	0.0%	5	-4	0.3	-3.1	4
CC1(C)Cc2ccccc2-c2nnnn21	-3.4%[38.3 µM]	3	-9	-0.3	-1.3	0

Continued; it opens with the four that closed the last part.
SMILES	PINK1 modulator	TRPML1 inh	D2 potentiator	TRPML1 ag	D2 ag	Six1-Eya2 blk
Cc1ccsc1C(C(=O)NC1CCCCC1)N(C(=O)Cc1cccs1)C1CC1 (stereo not given)	.	-2	0	2.0	-0.6	4
N#C/C(=C\c1ccc(Cl)cc1)c1nc2ccccc2o1	6.0%	11	-15	0.9	0.2	-5
COc1ccccc1CN1CCNC(=O)C1CC(=O)NCc1cn(C)nc1C (stereo not given)	0.0%	5	-4	0.3	-3.1	4
CC1(C)Cc2ccccc2-c2nnnn21	-3.4%[38.3 µM]	3	-9	-0.3	-1.3	0
Cc1ccc(-c2csc3nc[nH]c(=O)c23)cc1C	-1.2%	-5	-2	-0.3	2.6	4
CC(C)NC(=O)c1ccc2c3n(nc2c1)-c1ccc(Cl)cc1CO3	5.2%	-9	-4	-0.2	-0.3	-2
COc1cccc(CN2CC(C(=O)N(C)Cc3nc4ccc(F)cc4[nH]3)CCC2=O)c1 (stereo not given)	2.2%	-4	23	-0.9	-7.3	5
CN(C)CCNC(=O)Cn1nc(-c2ccc(Cl)cc2)ccc1=O	3.3%	-4	4	0.6	-4.4	2
Cc1ccc(Cl)cc1N1CCN(C(c2ccc(F)cc2)c2nnc(-c3ccccc3)o2)CC1 (stereo not given)	-0.4%	14	.	-0.2	.	.
CN(CCCC(=O)NCc1ccc2c(c1)OCO2)S(=O)(=O)c1ccc([N+](=O)[O-])cc1	0.2%	-4	17	-0.1	11	-3
O=C(NCc1ccccc1)C(=O)NCC(c1ccco1)N1CCN(c2ccccc2F)CC1 (stereo not given)	-0.5%	.	-2	.	-4.5	1
CC1CCCN(C(=O)C2CCN(S(=O)(=O)c3cccc4nsnc34)CC2)C1 (stereo not given)	5.8%	9	-3	-0.9	-3.0	-4
CCOC(=O)N1CCN(C(=O)C[C@@H]2C[C@@]3(C(=O)OCC)CCCC=C3N(Cc3ccc4c(c3)OCO4)C2=O)CC1	0.7%	.	.	-0.9	.	-2
COCCCNc1nc2nonc2nc1N1CCN(Cc2cccc(C)c2)CC1	2.8%	-9	2	0.6	6.6	-5
CCC(C)(C(=O)NC1CCCCC1)N(Cc1cccs1)C(=O)c1ccccn1 (stereo not given)	3.9%	-4	3	1.1	-5.6	4
O=C(NCc1cccs1)c1ccc(S(=O)(=O)N2CCOCC2)cc1	2.8%	-8	-1	-0.7	-1.4	11
Cc1ccc(OS(=O)(=O)c2ccccc2)c(/C=N/N=C2\NC(=O)C(C)S2)c1 (stereo not given)	-0.1%	11	-15	0.2	-2.9	-1
COc1ccc(CCNC(=O)c2ccc3c(Cl)c4c(nc3c2)CCCC4)cc1OC	1.3%	-14	.	0.0	.	.
O=C(NCCCN1CCCC1=O)Nc1ccc(Br)cc1Cl	0.2%	1	-9	0.3	4.5	4
CSCC[C@H]1COC[C@@H](Cc2ccccc2)N1c1ccccc1	13%	-8	5	0.4	-3.3	-14
COc1ccc(/C(O)=C2\C(=O)C(=O)N(CCN(C)C)C2c2cc(OC)c(OC)c(OC)c2)c(C)c1 (stereo not given)	0.8%	20	-7	-0.6	2.7	6
CCOc1ccc(-n2c(-c3ccc(Br)cc3)cc3c2CC(C)(C)CC3=O)cc1	2.3%	-5	.	1.0	.	.
CCc1cc(C(=O)Cc2ccccn2)c(O)cc1O	0.4%	-27	-7	0.1	-6.0	0
CCOc1cc(C(=O)OCc2cc(=O)n3nc(C4CC4)sc3n2)cc(OCC)c1OCC	-1.5%	-26	.	0.0	.	.
O=c1cc(CO)occ1OCc1cccc(C(F)(F)F)c1	.	-12	-32	-0.6	1.3	1
CCCc1cc(=O)oc2c(CN3CCN(C)CC3)c(O)c(Cl)cc12	-2.3%	10	9	0.0	3.5	6
O=C1OC(C(=O)Nc2cc(C(F)(F)F)ccc2Cl)Cc2ccccc21 (stereo not given)	5.9%	-8	.	1.4	.	.
Cc1ccc(NS(=O)(=O)c2ccc(C)c(NC(=O)COc3ccccc3)c2)c(C)c1	18%	4	-1	0.3	-8.1	-5
O=C(C1CCN(Cc2ccccc2O)CC1)N1CCN(Cc2ccc3c(c2)OCO3)CC1	1.9%	0	-19	0.2	-5.0	-3
Cc1cc(OCC(=O)NC(C)C)cc(C)c1Br	2.8%	-5	12	-0.5	-0.6	-2
COC(=O)c1c(C)[nH]c(C(=O)COC(=O)Cc2ccc3c(c2)OCCO3)c1C	-4.3%	5	-2	2.4	0.1	-4
Cc1ccc(/C=N/NC(=O)c2ccc(NC(=O)c3ccc(Cl)cc3)cc2)o1	4.1%	6	-3	-0.4	-0.3	1
O=C(COC(=O)c1ccc(NS(=O)(=O)c2cccs2)cc1O)NCc1ccccc1	4.3%	4	-7	2.4	4.7	1
CC(=O)c1ccc(NC(=O)CN(C)S(=O)(=O)c2cc3c(cc2Cl)NC(=O)CO3)cc1	3.1%	-21	.	1.0	.	.
Cc1onc(-c2c(F)cccc2Cl)c1C(=O)OCC(=O)c1c(N)n(C)c(=O)n(C)c1=O	1.1%	-21	0	0.7	4.5	-4
CCCS(=O)(=O)N1CCN(Cc2ccncc2)CC1	.	7	-9	-0.3	1.1	3
CCc1ccc(OCC(O)Cn2c(N3CCCCC3)nc3c2c(=O)[nH]c(=O)n3C)cc1 (stereo not given)	-0.3%	-1	4	-1.0	3.3	1
O=C(Nc1ccc(Cl)c(-c2nc3ccccc3o2)c1)c1cccc2c(Cl)cccc12	4.7%	5	.	-0.2	.	.
CCOCCCNC(=O)c1ccc2c(c1)N(Cc1ccccc1)C(=O)CS2=O (stereo not given)	-1.2%	13	-1	1.5	-2.8	5
CCCn1nnnc1SCC(=O)c1ccc(NC(C)=O)cc1	-1.8%	-8	15	2.0	-1.5	0
CCOC(=O)c1c(NC(=O)Cc2coc3ccc(CC)cc23)sc2c1CCC2	-1.6%	-4	.	-0.2	.	.
Fc1cc(F)cc(-c2oncc2-c2nnnn2-c2ccccc2)c1	-1.8%	6	6	1.8	-1.1	33
COc1ccc(NC(=O)[C@@H](NC(=O)c2ccccc2)C(C)C)cc1S(=O)(=O)N1CCCCC1	0.8%	23	-28	0.2	-2.0	-2
CC(NCCC(Cc1ccccc1)c1ccco1)c1ccccc1 (stereo not given)	16%	.	-28	.	-0.8	0
CC1CCN(c2nc3ccc(C(=O)NCCCN4CCCCC4C)cc3s2)CC1 (stereo not given)	0.2%	17	1	0.3	-2.6	0
C/C(=N\NC(=O)c1cccc(C)c1O)c1ccc(NC(=O)Cc2ccccc2)cc1	-0.4%	0	-27	-0.1	-3.7	-9
COc1ccc(CNC(=O)c2nc(SCc3ccc(C)cc3)ncc2Cl)cc1	0.8%	-10	.	0.9	.	.
CCN=C1Cn2c(nc3scc(-c4ccccc4)c3c2=O)CN1CC	0.5%	-8	13	-0.2	0.4	0
Cc1ccc(OCC(=O)NNC(=S)NC(=O)C(C)(C)C)c(Br)c1	2.6%	1	-5	0.2	-6.3	-3

Among those listed so far, these contain an aryl thioether with sulfur outside any ring:
SMILES	PINK1 modulator	TRPML1 inh	D2 potentiator	TRPML1 ag	D2 ag	Six1-Eya2 blk
CCCn1nnnc1SCC(=O)c1ccc(NC(C)=O)cc1	-1.8%	-8	15	2.0	-1.5	0
COc1ccc(CNC(=O)c2nc(SCc3ccc(C)cc3)ncc2Cl)cc1	0.8%	-10	.	0.9	.	.

The list continues.
SMILES	PINK1 modulator	TRPML1 inh	D2 potentiator	TRPML1 ag	D2 ag	Six1-Eya2 blk
CN1C[C@@H]2C(c3ccccc3)C3(c4cccnc4)CC2(C3)[C@H]1c1ccccc1 (stereo not given in full)	-0.6%	-7	-8	0.9	-3.7	-17
COc1cccc(-c2nc(CS(=O)(=O)CC(=O)NCCCN3CCOCC3)c(C)o2)c1	0.6%	2	-8	-0.9	1.8	-1
Cc1ccc([C@H]2C[C@@H](O)[C@H](n3cc(C4CC4)nn3)CN2CC2CCCCC2)cc1	3.1%	-3	-2	-0.6	-9.5	0
CCOC(=O)N1CCN(Cc2oc(CO)cc(=O)c2O)CC1	0.2%	9	-9	0.6	0.3	5
COc1ccc(C2=NOC(CNC(=S)N3CCOCC3)C2)cc1 (stereo not given)	-1.5%	-9	-1	1.5	4.5	-7
N#Cc1nc(-c2ccc(OCc3ccc(Cl)cc3)cc2)oc1NCCCn1ccnc1	0.6%	27	9	-0.4	-3.5	-6
CCOC(=O)C1CCCN(c2nc3c(S(=O)(=O)c4ccc(CC)cc4)nnn3c3ccc(Cl)cc23)C1 (stereo not given)	2.8%	-4	.	-0.2	.	.
O=C1NC(=O)C2C1C(c1ccccc1)N1C3C(=O)NC(=O)C3C(c3ccccc3)N21 (stereo not given)	0.3%	-7	-5	-0.2	-2.3	3
Cc1cc(Cl)c2oc(C(=O)N3CCC(O)(c4ccccc4)CC3)c(C)c2c1	1.6%	17	-2	-0.4	2.5	2
Cc1ccc(N(C)S(=O)(=O)c2cccc(C(=O)NC3=NCCS3)c2)cc1	-0.4%	-10	-16	1.8	-4.2	-2
